Beta cell apopt: beta cell apoptosis inhibition; INS-1E cytokine-induced death, ATP luminescence, 48 h; percent of positive-control rescue, neutral wells zero; protection from apoptosis, % (test concentration not listed); 300,000 tested, 0.8% active;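 active = all replicates at 75% or more, or half of them and the mean; inconclusive = half reach 75% but not the mean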;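 also: 0% = cytokine-treated negative control wells and 100% = positive control rescue; higher means more ATP so stronger rescue from cytokine killing; wells of about 40 µL received 100 nL stock; the first replicate is given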
T cruzi repl: blocks replication of Trypanosoma cruzi; inhibition, % (concentration not given with the values); T. cruzi beta-gal in NIH3T3, luminescence, 90 h; 300,000 tested, 1.4% active; AID 1885;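 active = mean inhibition across valid replicates above about 55%, limit read from the data; inconclusive = mean below that limit but half or more replicates reach it; inactive = mean below it, under half of replicates reach it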;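 also: signal also drops with host cell toxicity which is not excluded here; 0% = plate median of DMSO wells and 100% = zero luminescence signal; higher percent means less beta-gal luminescence so fewer parasites; stock transfer was 50 nL into about 50 µL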
ALR inh: blocks human ALR sulfhydryl oxidase activity; P55789; purified ALR, DTT oxidation, H2O2 HRP-luminol luminescence; inhibition, % (test concentration not listed); 290,000 tested, 3.8% active; AID 485317;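 active = mean and each replicate at 75% or more; inconclusive = only one of the two met; inactive = neither met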;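 also: stock transfer was 7.5 nL into about 7.5 µL; 0% = neutral wells and 100% = wells with inactivated enzyme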
Target sequence (P55789 whole entry, looked up): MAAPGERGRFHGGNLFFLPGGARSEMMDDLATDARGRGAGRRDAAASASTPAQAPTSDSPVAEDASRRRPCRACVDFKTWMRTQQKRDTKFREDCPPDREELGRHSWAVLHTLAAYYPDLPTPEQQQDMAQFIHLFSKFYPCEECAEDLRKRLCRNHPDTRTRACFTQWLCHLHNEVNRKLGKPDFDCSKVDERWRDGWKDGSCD
Calb FLC: C. albicans growth modulation with fluconazole. C. albicans CaCi-2 (fluconazole-resistant clinical isolate) + fluconazole, Alamar Blue growth, 48 h. 300,000 tested, 0.57% active. growth inhibition, % (test concentration not listed);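 active = most replicates above 75%; inconclusive = exactly half above 75%; inactive = most below 75%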;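 also: all wells also contain fluconazole at 8 µg/ml as a sub-toxic cotreatment; 0% = median of DMSO wells and 100% = median of geldanamycin control wells; wells of about 8 µL received 7.5 nL stock; the first replicate is given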
MLL AF4-AF9 inh: inhibitors of human MLL-AF4/AF9 interaction; 350,000 tested, 0.47% active; P42568; AID 651704; AlphaScreen, biotin-AF4 peptide binding to FLAG-AF9; inhibition, % at 10 µM;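 active = every replicate reaching a set inhibition limit, whatever the replicate mean, cut at about 25% in these data; inconclusive = mean inhibition reaches that limit but some replicates miss it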;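 also: 0% = plate neutral control median and 100% = total signal loss; the record names both 10 and 1 µM as test concentration; the first replicate is given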
Target sequence (P42568 whole entry, looked up): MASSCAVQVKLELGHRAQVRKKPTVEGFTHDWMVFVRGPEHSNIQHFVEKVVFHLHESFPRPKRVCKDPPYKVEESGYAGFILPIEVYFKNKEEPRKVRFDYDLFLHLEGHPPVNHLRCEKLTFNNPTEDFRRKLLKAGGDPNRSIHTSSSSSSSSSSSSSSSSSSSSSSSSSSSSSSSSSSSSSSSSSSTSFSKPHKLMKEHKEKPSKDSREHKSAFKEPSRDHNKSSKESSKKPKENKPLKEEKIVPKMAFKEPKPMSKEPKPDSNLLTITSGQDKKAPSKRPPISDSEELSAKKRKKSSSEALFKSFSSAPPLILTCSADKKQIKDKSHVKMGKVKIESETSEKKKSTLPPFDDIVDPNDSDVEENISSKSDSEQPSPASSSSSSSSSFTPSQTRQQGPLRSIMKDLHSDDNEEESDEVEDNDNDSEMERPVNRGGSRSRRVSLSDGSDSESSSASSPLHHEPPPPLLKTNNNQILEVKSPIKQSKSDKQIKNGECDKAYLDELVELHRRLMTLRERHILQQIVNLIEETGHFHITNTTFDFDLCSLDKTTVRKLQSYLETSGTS
RanGTP-Impb inh: disruptors of Ran-importin-beta complex formation – biochemical, FRET, CFP-Ran, YFP-importin-beta, homogeneous, primary screen; cell-free CFP-Ran/YFP-importin-beta FRET ratio; inhibition, % (no concentration beside the values); 300,000 tested, 1.1% active;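 active = most replicates above 15%; inconclusive = exactly half above 15%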;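 also: 0% = DMSO wells and 100% = Ran loaded with GDP instead of GTP; wells of about 40 µL received 100 nL stock; the first replicate is given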
Ecoli rRNA inh: selective bacterial rRNA inhibition in E. coli; E. coli WT GFP vs humanized-ribosome RFP mutants, fluorescence, 24 h; stronger effect = lower value; DMSO median 0, no signal -100; GFP signal change (wild-type ribosome), % (no concentration beside the values); 350,000 tested, 1.6% active;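 active = significant combined selectivity score with lowered wild-type GFP, culture density cut under 30%, mutant RFP and density less affected; inactive = any of these conditions unmet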; also: one replicate is shown; some compounds called inactive have numbers as strong as hits
FGF22 binding: shifts melting point of recombinant human FGF22; AID 651658; recombinant FGF22 thermal shift, SYPRO orange fluorescence; percent of sucrose octasulfate shift, DMSO zero; Q9HCT0; calls only at 9.99 µM; 340,000 tested, 1.5% active;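 active = melting point raised past a set limit in the mean and every replicate; inconclusive = no clear call; three in four hits are not shown here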
Target sequence (Q9HCT0 whole entry, looked up): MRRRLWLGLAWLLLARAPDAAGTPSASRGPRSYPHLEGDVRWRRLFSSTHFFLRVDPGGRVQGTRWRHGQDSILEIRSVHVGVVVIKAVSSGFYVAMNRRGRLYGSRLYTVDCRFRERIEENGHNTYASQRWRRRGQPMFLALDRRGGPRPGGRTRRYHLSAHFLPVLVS
Ecoli rRNA inh OD600: further read-out of Ecoli rRNA inh, marked with its call; OD600 change, %; measured here: OD600 growth;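 optical density of the mix in the first replicate; 0 = DMSO median and -100 = no signal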
Ecoli rRNA inh RFP: further read-out of Ecoli rRNA inh, marked with its call; RFP signal change, %; measured here: RFP humanized mutant strains;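 first replicate; 0 = DMSO median and -100 = no signal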
Active calls of the source: *; i = inactive; ? = inconclusive; · = not tested or not shown; & = joins results of further samples.

item	smiles	Beta cell apopt	T cruzi repl	ALR inh	Calb FLC	MLL AF4-AF9 inh	RanGTP-Impb inh	Ecoli rRNA inh	Ecoli rRNA inh OD600	Ecoli rRNA inh RFP	FGF22 binding
1	O=C1CSC(=S)N1Cc1cccnc1	9	14	-11	-1	·	-5.8	·	·	·	·
2	O=C(COc1cc2oc(=O)c3c(c2cc1Cl)CCC3)Nc1ccccn1	-3	5	1	-1	1.4	1.0	3	1	1.2	i
3	O=C(C[C@@H]1C/C=C\CCCC(=O)OC[C@@H](c2ccccc2)NC1=O)NCCO	-6	·	-2	·	-12	·	1	0	-10	i
4	COc1ccccc1CC(NC(C)=O)C(=O)NC1CCN(C(=O)c2ccc(C)cc2)CC1 (stereo not given)	3	-12	-11	-4	0.5	-2.8	3	6	-1.2	i
5	C[C@H](CO)N1C[C@H](C)[C@@H](CN(C)S(C)(=O)=O)Oc2ccc(NC(=O)c3ccncc3)cc2C1=O	-12	·	-6	·	-1.0	·	3&8	8&6	-1.2&-1.9	i
6	O=[N+]([O-])c1ccc(Oc2cccnc2)nc1	·	·	-1	9	1.9	-0.7	7	-6	0.4	i
7	COc1ccc(NS(=O)(=O)c2cccc(C(=O)NCCc3ccc(S(N)(=O)=O)cc3)c2)cc1	-5	·	-5	·	-1.9	·	-1	-4	2.2	i
8	COc1cc(C(=O)Nc2c(C(=O)O)[nH]c3ccc(C)cc23)cc(OC)c1OC	4	-3	96*	-1	-2.5	1.8	1	0	0.1	·
9	CC(=O)NCCc1ccc(O)cc1	·	-19	53	3	0.0	-3.0	·	·	·	i
10	CCc1nc(SCC(=O)NNC(=O)c2ccc(OC)cc2)c2ccccc2n1	-7	15	-4	36	-1.1	-1.2	0	-5	-3.7	i
11	O=C(Nc1ccccc1Cl)c1ccc2nsnc2c1	-3	-1	-4	-28	-2.2	2.6	6	7	1.1	i
12	C/C(=N\NC(=O)c1c(Cl)cnn1C)c1cccc(NC(=O)COc2ccccc2)c1	-3	-1	4	0	·	-3.2	·	·	·	·
13	O=C(CSc1nnc2ccc(-c3ccccn3)nn12)Nc1ccccc1F	·	-4	-11	0	0.3	?	4	8	-1.9	·
14	Cc1ccc(OC(=O)CCC(=O)Nc2ccc(S(=O)(=O)Nc3cc(C)on3)cc2)cc1	-8	-11	11	-4	·	1.1	·	·	·	·
15	O=C(CN1C(=O)CCC1=O)Nc1ccc2c3c(cccc13)CC2	-2	8	-11	23	·	-2.9	·	·	·	·
16	Cc1ccc(S(=O)(=O)N2CCN(C(=O)CN3C(=O)c4ccc([N+](=O)[O-])cc4C3=O)CC2)cc1C	0	·	-8	·	3.9	·	1	6	-2.9	i
17	O=C(Nc1ccncc1)Nc1ccc(F)c(Cl)c1	10	48	-28	6	-0.6	0.0	-51	-78	-15	i
18	Cc1ccc(-c2nn(-c3ccccc3)cc2NC(=O)CCl)cc1	-2	-28	2	-26	2.6	-0.4	-31	-32	-1.2	·
19	COc1ccc([N+](=O)[O-])cc1NC(=O)c1ccccc1N(C)S(C)(=O)=O	·	-8	-12	-1	-1.3	-2.8	15	13	1.5	·
20	Nn1cc(-c2ccccc2)nc1SCC(=O)NCC1CCCO1 (stereo not given)	-5	-9	-6	-3	1.0	3.0	3	5	4.0	i
21	CCC(=O)N1CCN(c2cc(N3CCN(C)CC3)c(F)cc2[N+](=O)[O-])CC1	-8	69*	-3	0	-2.3	1.0	·	·	·	i
22	Cc1ccc(C2/C(=C(\O)c3ccc4c(c3)OCCO4)C(=O)C(=O)N2Cc2cccnc2)cc1 (stereo not given)	-4	-5	6	0	0.0	-1.1	7	15	-1.1	i
23	COc1cccc(CN(CC(=O)NCc2ccccc2)S(=O)(=O)CCl)c1	5	·	2	·	-6.5	·	-10	-6	-0.3	i
24	CN(CCCCCCN(C)Cc1ccccc1O)Cc1ccccc1O	2	13	7	6	1.8	-0.2	5	5	-0.1	i
25	CCc1ccc(NC(=O)Cn2c(=O)c3cccn3c3ccccc32)cc1	20	5	-4	-4	1.8	?	0	2	0.1	i
26	COc1ccccc1CC(=O)N1CCN(c2ccccc2F)CC1	-2	-8	-4	-4	2.6	-0.4	-7	-8	0.6	i
27	CC[C@H](C)[C@H](NC(=O)[C@H](Cc1ccc(O)cc1)NC(=O)[C@@H](N)C(C)C)C(=O)N[C@@H](Cc1cnc[nH]1)C(=O)N1CCC[C@H]1C(=O)N[C@@H](Cc1ccccc1)C(=O)O	·	-16	0	-7	·	2.8	·	·	·	·
28	CCOC(=O)c1cnc(SCC(=O)OC)nc1N	-3	1	-10	-11	1.3	·	19	14	2.9	·
29	C1=CC2c3ccccc3NC(c3ccncc3)C2C1 (stereo not given)	-3	-1	-21	35	·	-1.5	·	·	·	·
30	COc1cccc(CNC(=O)c2ccccc2SCC(=O)N2CCCC2)c1	-1	1	4	0	-2.7	·	-3	7	-1.0	i
31	CN(C)c1ccc(S(=O)(=O)N2CCCCC2)cc1NC(=O)CCNC(=O)c1ccc(Cl)cc1	1	·	-7	·	-2.6	·	-3	12	0.8	i
32	Cc1cc(C)n2nc(SCC(=O)N3CCOCC3)nc2n1	-1	·	0	·	-0.2	·	·	·	·	i
33	O=C(NCc1ccco1)C1CC(c2cc(C(F)(F)F)cc(C(F)(F)F)c2)=NO1 (stereo not given)	10	1	18	10	1.5	-0.2	·	·	·	i
34	COc1ccc(C(C)=O)cc1CN1C(=O)NC(CC(C)C)C1=O (stereo not given)	-1	0	9	-7	-3.7	0.9	14	10	3.8	i
35	COc1ccc(N(C(=O)CCC(=O)Nc2cc(C)on2)C(C(=O)NC2CCCC2)c2ccco2)cc1 (stereo not given)	1	-20	-12	-2	2.0	3.0	-2	-10	-2.4	i
36	CCS(=O)(=O)c1ccc2oc(SCC(=O)Nc3ccc(OC)c(OC)c3)nc2c1	-5	-1	-5	-4	1.5	3.2	-3	-12	-1.3	i
37	CCC(C)n1c(SCC(=O)NCc2ccco2)nnc1-c1cccc(S(=O)(=O)N2CCOCC2)c1 (stereo not given)	0	2	·	-6	·	-3.0	·	·	·	·
38	O=C(COc1ccc(S(=O)(=O)N2CCCCC2)cc1)Nc1ccccc1F	-8	-3	-7	-11	-1.2	2.3	1	4	0.8	i
39	Cc1ccc(-c2noc(CNC(=O)c3ccc4c(c3)OCO4)n2)cc1	-1	-3	2	-8	0.0	-1.0	-3	-3	-0.8	i
40	CCOc1cccc(SCc2noc(C(=O)NCCOC)c2C(=O)O)c1	-3	-13	-3	0	-2.3	0.9	1	2	-0.1	i
41	COc1ccc(NC(=O)C(c2ccccc2)N(C)C(=O)c2ccc(=O)[nH]c2)cc1 (stereo not given)	-3	-8	-7	17	-4.0	-4.9	10	5	2.3	i
42	Cc1cc(C)n(S(=O)(=O)c2ccc(C)c(C)c2C)n1	0	-7	-8	-7	·	0.3	·	·	·	·
43	CSc1ccc(S(=O)(=O)NCCCOC(C)C)cc1	0	-11	-7	-5	·	-2.0	·	·	·	·
44	Cc1cccc(-n2c(Cn3nc(C)c([N+](=O)[O-])c3C)n[nH]c2=S)c1	2	-1	26	1	·	-2.5	·	·	·	·
45	CCOc1ccccc1NC(=O)N1CCCC1C(=O)Nc1ccc(-n2cnnn2)c(C)c1 (stereo not given)	-9	-12	-14	0	·	-3.3	·	·	·	·
46	Cc1ccc(Sc2cc(N3CCOCC3)nc(-c3ccccc3)n2)cc1	-4	38	-3	-5	·	2.0	·	·	·	·
47	COc1ccc(NC(=O)c2ccc(N3C(=O)C4CC=C(Cl)CC4C3=O)cc2)cc1 (stereo not given)	-3	-1	-14	8	-2.2	-3.0	7	8	3.3	i
48	C=CCC1NS(=O)(=O)OC(CCc2ccccc2)C1O (stereo not given)	-14	0	-7	5	0.5	?	-2	9	-3.0	i
49	COCCn1c(C)cc(C(=O)Cn2nc(C(=O)O)c3ccccc3c2=O)c1C	1	-4	-4	0	-0.9	1.4	14	9	1.6	i
50	C=CCn1c(Cc2cccs2)nnc1SC/C=C/c1ccccc1	-1	2	0	-10	·	?	·	·	·	·
51	Cc1c(N=Cc2ccc(Br)s2)cccc1[N+](=O)[O-]	-4	-7	·	-2	·	-0.1	·	·	·	·
52	Cc1cc(C)c(CN2CCN(Cc3ccc(C)o3)C(CCO)C2)c(-n2cccn2)c1 (stereo not given)	-6	-4	0	18	1.2	6.1	13	0	0.0	i
53	Cc1ccc(CCNC(=O)c2ccc(CS(=O)(=O)Cc3ccc(F)cc3)o2)cc1	-1	-3	-1	4	-2.2	1.1	7	14	1.4	i
54	Cc1ccc(NS(=O)(=O)c2cc(C(=O)N3CCOCC3)ccc2C)cc1	-1	0	-14	-15	-1.9	0.7	7	1	1.4	i
55	COC(=O)NCC(c1cccnc1)N1CCN(c2ccccc2)CC1 (stereo not given)	-2	27	89*	8	0.5	1.1	3	11	-1.4	i
56	O=C(CCC(=O)N1CCN(c2ccccc2)CC1)Nc1nnc(C2CCCCC2)s1	·	-4	-5	0	-1.3	7.8	3	7	0.5	i
57	CCn1nc(C)cc1C(=O)N1CCCC(CCC(=O)NCc2ccccc2F)C1 (stereo not given)	-4	-10	0	-4	-0.9	5.1	3	3	1.0	i
58	CCCCc1ccc(S(=O)(=O)N2CCN(C(=O)c3ccco3)CC2)cc1	0	-10	0	-6	·	-2.3	·	·	·	·
59	COc1ccc(NC(=O)CSc2n[nH]c(-c3ccncc3)n2)c([N+](=O)[O-])c1	-3	-23	-13	26	-0.5	-2.5	-18*	-12*	4.3*	i
60	CC(C)(C)OC(=O)N1C[C@H](O)C[C@H]1C(=O)OCC(=O)c1ccc([N+](=O)[O-])cc1	6	-6	42	4	-5.0	-0.7	1	14	-1.5	·

(next part)
item	smiles	Beta cell apopt	T cruzi repl	ALR inh	Calb FLC	MLL AF4-AF9 inh	RanGTP-Impb inh	Ecoli rRNA inh	Ecoli rRNA inh OD600	Ecoli rRNA inh RFP	FGF22 binding
61	O=C(Nc1ccccc1)c1cccc(N2C(=O)C3C4CC(C(Br)C4Br)C3C2=O)c1 (stereo not given)	·	-5	-14	11	-1.6	-1.2	-4	-24	2.2	i
62	Cc1nn(CC(=O)NCc2ccc(Cl)cc2)c(C)c1[N+](=O)[O-]	-2	-15	1	-1	·	-0.1	·	·	·	·
63	O=C(Cc1c[nH]c2ccccc12)Nc1ccc(N2CCOCC2)cc1	-15	3	·	-3	-12	-0.6	5	13	-0.5	i
64	COC(=O)c1ccc(COc2cccc(C)c2C)cc1	-8	-18	3	-6	-17	2.7	14	16	2.3	·
65	CCCNC(=O)C(=O)Nc1ccc(N(C)C)cc1	-1	2	62	1	·	3.4	·	·	·	·
66	Cc1ccccc1OCC(=O)Nc1ccccc1-c1ccccc1NC(=O)COc1ccccc1C	-2	39	·	3	·	2.5	·	·	·	·

Screens (PubChem BioAssay)

These rows are one share of the data; rates above refer to the full screens.
